Mtb growth: Mycobacterium tuberculosis H37Rv growth inhibition, cell based, confirmatory dose response (AID 1949); most inactive calls were filed without a number and no value below 0 was filed; one-dose inhibition, % at 10 µg/mL; IC50 in µg/mL for titrated hits; hit rate 1.6% among 100,000;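 active = confirmed in a dose series; inconclusive = about 50% or more but not retested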;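 note: bacteria grown 7 days with compound before Alamar blue readout; 0% = untreated bacteria and 100% = reference antibiotic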
An asterisk follows results filed as active; i = inactive; u = inconclusive. This is a subset (hit frequency here may not be typical).

SMILES	Mtb growth
Cc1ccc(C)c(NC(=S)N2CCC(C(N)=O)(N3CCCCC3)CC2)c1	1%
COc1cc(C(=O)O)cc(Br)c1OC1CCCC1	i
Cc1ccc(S(=O)(=O)N2CCN(c3ccc([N+](=O)[O-])c(N4CCCC4)c3)CC2)cc1C	i
CC(=O)N1N=C2C3CCN(CC3)C2C1c1cccc(F)c1 (stereo not given)	i
CCOc1ccc(N(CC(=O)Nc2cccc(F)c2)S(=O)(=O)c2ccccc2)cc1	i
COc1ccc(Cl)cc1CN1CCN(c2ncnc3scc(-c4ccc(F)cc4)c23)CC1	8%
Cc1ccccc1C(=O)Nc1ccc(Br)c(C)n1	1%
O=C(Nc1nnc(-c2cccnc2)s1)c1cccs1	i
Cc1ccccc1NC(=O)CNC(=O)Cc1ccccc1	i
COc1ccc(Cl)cc1C(=O)Nc1cccc(I)c1	i
O=C1CCCc2oc3c(cc(NS(=O)(=O)c4cccc5ccccc45)c4ccccc43)c21	11%
CCc1ccc(OCCNC(=O)c2ccccc2SCc2ccc(F)cc2)cc1	i
CCCc1cc(=O)oc2cc(Oc3ccc([N+](=O)[O-])cc3C(F)(F)F)ccc12	3%
O=C(c1ccco1)N1CCN(C(=O)c2cnn3c2NC(c2cccs2)CC3C(F)(F)F)CC1 (stereo not given)	i
COc1cc(Cl)c(C)cc1NC(=O)c1cccc2ccccc12	i

(more compounds)
SMILES	Mtb growth
CCOc1cc(NC(=O)c2ccccc2)c(OCC)cc1NC(=O)CN1C(=O)c2ccccc2C1=O	i
COc1cc(Br)cc(CO)c1O	1%
COc1ccc(NC(=O)c2ccccc2O)c(OC)c1	46%
Cc1c(Cl)cccc1NC(=O)CSC1=C(C#N)C(c2ccco2)CC(=O)N1 (stereo not given)	i
COC(=O)c1ccc(C)c(NC(=O)c2ccccc2OC)c1	i
COC(=O)c1ccc(NC(=O)CSc2nnc(-c3cccc(C)c3)n2C)cc1	i
S=c1[nH]nc(-c2ccc(-c3cc(Cl)ccc3Cl)o2)o1	i
CC(=O)c1cccc(NC(=O)NNC(=O)c2ccccc2I)c1	i
O=C(Nc1ccc(I)cc1C(=O)NCC1CCCO1)c1ccc(Cl)cc1Cl (stereo not given)	8%
Fc1ccccc1Cn1cnc(NC(=S)NCCc2ccccc2)n1	i
CCC(NC(=S)NC(=O)c1cccnc1)c1ccccc1 (stereo not given)	1%
O=C(Nc1cc(C(F)(F)F)ccc1Cl)c1cc(-c2ccccc2)on1	3%
COc1ccccc1Oc1coc2cc(OCC=C(C)C)ccc2c1=O	2%
COc1cc([N+](=O)[O-])ccc1NC(=O)COc1cc(C)c(Br)c(C)c1	i
O=C(CCC1CCCCC1)NCCCN1CCOCC1	i

(list continues)
SMILES	Mtb growth
CCSc1ccccc1C(=O)Nc1ccc(F)c(Cl)c1	0%
CN(CC(=O)Nc1ccc(I)cc1)S(=O)(=O)c1ccc(Cl)cc1	4%
Cc1cccc(C)c1NC(=O)CSC1=C(C#N)C(c2cccs2)C2=C(CCCC2=O)N1 (stereo not given)	i
CCCc1cc(=O)n2[nH]c(NCc3ccccc3)nc2n1	i
CC(C)c1ccc(S(=O)(=O)Nc2ccc(O)c(Cl)c2)cc1	2%
CCC1CCCCN1C(=O)CCC1CCCCC1 (stereo not given)	3%
Cc1cc(C)cc(NC(=O)NNC(=S)NC2CCCCC2)c1	i
COc1ccc(N(CC(=O)NC2CCCCC2)S(C)(=O)=O)cc1	7%
O=C(NNc1nc(-c2ccccc2)c2cc(Br)ccc2n1)c1ccccc1Cl	i
CC(C)C(=O)Nc1ccc([N+](=O)[O-])cc1Br	1%
COC(=O)NCCOc1ccc(C(C)(C)C)cc1	i
CCOC(=O)C1=C(N)Oc2c(c(=O)[nH]c3ccccc23)C1c1ccccc1 (stereo not given)	i
OCCCNc1ncnc2scc(-c3ccccc3)c12	i
Cc1c(C=O)c2ccccc2n1CC(=O)NCc1cccs1	i
CN(c1ccc(O)cc1)c1nc(-c2ccccn2)cs1	30%

Part of the list above, field by field:
CC(C)c1ccc(S(=O)(=O)Nc2ccc(O)c(Cl)c2)cc1
  Mtb growth: 2%

CCC1CCCCN1C(=O)CCC1CCCCC1 (stereo not given)
  Mtb growth: 3%

Cc1cc(C)cc(NC(=O)NNC(=S)NC2CCCCC2)c1
  Mtb growth: i

COc1ccc(N(CC(=O)NC2CCCCC2)S(C)(=O)=O)cc1
  Mtb growth: 7%

Already shown: 3 of the compounds above.
SMILES	Mtb growth
OCCCNc1ncnc2scc(-c3ccccc3)c12	i
Cc1c(C=O)c2ccccc2n1CC(=O)NCc1cccs1	i
CN(c1ccc(O)cc1)c1nc(-c2ccccn2)cs1	30%

Other entries follow.
SMILES	Mtb growth
CC(C)Oc1ccc(C(=O)Nc2ccccc2-c2nc3ccccc3s2)cc1	i
CCc1ccc(-n2c(SCc3ccc([N+](=O)[O-])cc3)nnc2-c2ccccc2)cc1	i
O=C(O)COc1ccc(Cl)cc1Br	i
Fc1ccc(OCCCCCN2CCCCC2)cc1	i
CCOC(=O)c1sc2ncn(CC(=O)Nc3ccccc3C(C)C)c(=O)c2c1C	i
COc1ccccc1NC(=O)C1CC(=O)N=C(N)S1 (stereo not given)	i
COc1ccccc1-n1cnc2cc(NC(=O)c3ccc(Cl)cc3)ccc21	i
Cc1ccc(NC(=O)CSc2n[nH]c(-c3ccncc3)n2)cc1C	29%
COC(=O)C1=C(C)NC2=C(C(=O)CC(C)(C)C2)C1c1ccc2c(c1)OCO2 (stereo not given)	i
O=C(CC12CC3CC(CC(C3)C1)C2)NC(=S)NCc1ccccc1	0%
CCCc1ccc(OCc2ccc(C(=O)N3CCN(c4ccccn4)CC3)o2)c(OC)c1	15%
Cc1ccc(N2C(=O)CC(Sc3ncn[nH]3)C2=O)cc1 (stereo not given)	19%
CS(=O)(=O)N(CC(=O)N1CCC(Cc2ccccc2)CC1)c1cccc2ccccc12	0%
O=C(NC(=S)Nc1cc2nn(-c3ccccc3)nc2cc1Cl)c1ccc2c(c1)OCCO2	i
COc1ccccc1NC(=O)CSC1=NCCS1	i

Ordered by SMILES length (low to high): 6 of the compounds above.
SMILES	Mtb growth
O=C(O)COc1ccc(Cl)cc1Br	i
COc1ccccc1NC(=O)C1CC(=O)N=C(N)S1 (stereo not given)	i
Cc1ccc(N2C(=O)CC(Sc3ncn[nH]3)C2=O)cc1 (stereo not given)	19%
CCOC(=O)c1sc2ncn(CC(=O)Nc3ccccc3C(C)C)c(=O)c2c1C	i
CCCc1ccc(OCc2ccc(C(=O)N3CCN(c4ccccn4)CC3)o2)c(OC)c1	15%
O=C(NC(=S)Nc1cc2nn(-c3ccccc3)nc2cc1Cl)c1ccc2c(c1)OCCO2	i

The listing continues:
SMILES	Mtb growth
CC(=O)Nc1ccc(NC(=O)C2CCN(C(=O)c3ccc(C(C)(C)C)cc3)CC2)cc1	i
CCOc1ccccc1OCCOc1c(C)cc(C)cc1Br	3%
Clc1ccc(CSc2nnnn2-c2ccccc2)cc1Cl	5%
O=C(COc1ccc([N+](=O)[O-])cc1)Nc1nc2ccc(Cl)cc2s1	19%
C=CCn1c(CNC(=O)c2ccccc2C)nnc1SCC(=O)NC1CCCC1	i
Cc1cccc(C(=O)Nc2nnc(SCC(=O)NC3CCCCC3)s2)c1	3%
CCOC(=O)c1c(NC(=O)c2cccc(OC)c2)sc(C)c1-c1ccccc1	27%
C=CCN1C(=O)C(Cc2ccccc2C)S/C1=N/N=C/c1ccc(OC)c(OC)c1 (stereo not given)	i
Cn1c(=O)c2c(ncn2CC(=O)Nc2cccc(Cl)c2Cl)n(C)c1=O	2%
COc1ccc(C)cc1NC(=O)CSc1nnc(-c2ccncc2)n1-c1ccc(Br)cc1	i
C=CCSc1nnc(NC(=O)CCCN2C(=O)c3cccc4cccc(c34)C2=O)s1	i
COc1ccccc1Nc1nc(C)cc(C)c1C(N)=O	i
CC(C)c1c(-c2ccccc2)[n+](=O)c2c(n1[O-])CCCCC2	i
O=C(CC(Nc1ccccc1Cl)C(=O)O)c1ccccc1 (stereo not given)	i
CN(CC(=O)Nc1ccccc1-c1ccccc1)S(=O)(=O)c1ccccc1	i

Going on with the list.
SMILES	Mtb growth
CCCN(CCC)C(=S)NC(=O)c1ccc(OC)cc1	2.6µg/mL*
O=C(Nc1ccc(N2CCOCC2)c2nonc12)c1cc2c(s1)CCCC2	i
Cn1ccnc1C(O)c1ccc2c(c1)OCO2 (stereo not given)	3%
CCOc1ccc(C(C)NC(=S)NCc2ccc(Cl)cc2)cc1 (stereo not given)	i
CCOC(=O)Nc1sc2c(c1C(=O)OC)CCC2	3%
CCOC(=O)c1c(-c2ccccc2)c(C#N)c(N)[nH]c1=S	i
CCc1nc2ccccc2n1CCCOc1ccccc1	0.5µg/mL*
COc1cc(C)c(S(=O)(=O)N2CCN(c3ccccc3F)CC2)cc1C	i
COc1cccc(C(=O)OCc2ccc([N+](=O)[O-])cc2)c1	i
Cc1ccc(-c2nc3cc(N)ccc3o2)c(Cl)c1	1%
Cc1ccc(NC(=O)c2cnccn2)c(OC(F)F)c1	i
COc1ccc(/C=C/C(=O)Nc2c(C(C)C)cccc2C(C)C)cc1OC	3%
C=CCOc1ccc(C(c2c(C)[nH]n(-c3ccccc3)c2=O)c2c(C)[nH]n(-c3ccccc3)c2=O)cc1	5%
CS(=O)(=O)N(CC(=O)Nc1ccc(I)cc1)c1ccc(Cl)cc1	i
O=C(c1cccnc1)N1CCC2(CC1)OCCO2	0%

The list goes on:
smiles,Mtb growth
CCOc1ccc(C(=O)NC2CCCC2)cc1Cl,i
O=C(Nc1ccccc1N1CCOCC1)c1sc2ccccc2c1Cl,i
CCCn1c(NCc2ccc(OCC)cc2)nc2ccccc21,u
Cc1sc(NC(=O)Cc2ccc(Br)cc2)c(C(N)=O)c1C,i
Cc1ccc(C(C)C)cc1OCCOCCN1CCCCC1,i
CCOc1ccc(S(=O)(=O)n2cc(-c3ccc(C)c(F)c3)c(N)n2)cc1,i
COc1ccc(OC)c(NC(=O)NCc2cnn(C)c2)c1,i
O=C(NC(=S)Nc1ccc(Cl)c(C(=O)O)c1)c1cccc(F)c1,i

Continued:
smiles,Mtb growth
c1ccc(OCCCSc2nc3ccccc3s2)cc1,10%
Cc1c(C#N)c(N)nc2c3c(sc12)NC(=O)CC3c1ccccc1Cl (stereo not given),i
COc1cccc(NC(=O)CSc2nnc(-c3ccc(Cl)cc3)n2-c2cccc(C)c2)c1,i
CCOc1cc(CO)c(Br)cc1OCC(=O)O,i
CCOC(=O)N1CCN(c2ccc(C(F)(F)F)cn2)CC1,i
O=S(=O)(Cc1ccc(Cl)cc1)NC1CCCCC1,i
CCCn1cnc2sc(C(=O)OCC)c(C)c2c1=O,i
O=C1c2ccccc2NC(c2ccc([N+](=O)[O-])cc2)N1O (stereo not given),i

Next structures:
smiles,Mtb growth
Cc1ccc(C)c(NC(=S)NC2CC(C)(C)NC(C)(C)C2)c1,8%
N#Cc1ccc(CSc2nc(N)cc(=O)[nH]2)cc1,i
COc1ccc(-c2cc(=O)oc3c(C)c(OC(=O)C4CCCCC4)ccc23)cc1,i
COC(=O)c1ccccc1NC(=O)CSc1nc(-c2cccs2)cc(C(F)(F)F)c1C#N,i
COc1ccc(Cl)cc1NC(=O)CN(c1ccccc1)S(=O)(=O)N(C)C,i
Cc1ccccc1Cn1c(NCc2ccco2)nc2c1c(=O)n(C)c(=O)n2C,i
O=C(Nc1ccccc1)c1ccc(S(=O)(=O)c2cccc(S(=O)(=O)N3CCOCC3)c2)cc1,i
Cc1cccc(NS(=O)(=O)c2ccc(F)c(Cl)c2)c1,8%

(next part)
smiles,Mtb growth
COc1cccc(CNCCc2ccccc2)c1OC,1%
CCOC(=O)c1c(NC(=O)c2ccc(Cl)c(S(=O)(=O)N3CCOCC3)c2)sc2c1CCCC2,12%
CC(C)OCCCNC(=S)Nc1ccccc1,i
CS(=O)(=O)NCCc1ccc(S(N)(=O)=O)cc1,i
CCCn1c(NCc2ccc(Br)cc2)nc2ccccc21,4.3µg/mL*
Cc1ccc(N(CC(=O)N2CCC(Cc3ccccc3)CC2)S(=O)(=O)c2ccc(F)cc2)cc1,2%
OC(CNC1CCCC1)COc1ccc2c(c1)CCC2 (stereo not given),0%
Cc1cc(NC(=O)COc2c(C)cccc2C)no1,3%

Remaining list, next part:
smiles,Mtb growth
CCOc1ccccc1NC(=O)CSc1nc2ccccc2c(=O)n1-c1ccc(C)cc1,i
COc1ccc(C(=O)Nc2ccc(OC)c(Cl)c2)c(OC)c1,i
Cc1ccc(NC(=O)C23CC4CCC(CC(C4)C2)C3)cc1,0.19µg/mL*
Cc1cc(=O)c2cc(Br)ccc2[nH]1,i
CCOC(=O)C1=C(C)N(C)C(=O)NC1c1cccc(C(F)(F)F)c1 (stereo not given),5%
O=Cc1cc(Cl)ccc1OC(=O)c1cccs1,i
N=c1c(S(=O)(=O)c2ccc(Cl)cc2)cc2c(=O)n3ccccc3nc2n1C1CCCCC1,i
Nc1nc2c(s1)COc1ccccc1-2,i

(cont.)
smiles,Mtb growth
CCc1ccc(NC(=O)C(C)Sc2ccccc2)cc1 (stereo not given),11%
CCCN1CCC(NC(=S)Nc2sc(C)c(C)c2C(=O)OC)CC1,i
O=C(c1ccco1)N1CCN(C2CC(=O)N(c3cccc(Cl)c3)C2=O)CC1 (stereo not given),i
COc1ccc(CCNC(=O)c2cc3cc(F)ccc3nc2C)cc1OC,i
CCOC(=O)COc1ccc(Br)c(C=O)c1,5.5µg/mL*
COc1cc(OC)cc(N2C(=O)CC(N3CCSCC3)C2=O)c1 (stereo not given),i
Nc1cc(=O)nc(SCC(=O)N(c2ccccc2)c2ccccc2)n1-c1ccccc1,i
Cc1[nH]c2ccccc2c1C(=O)CSc1nc2ccccc2s1,i
O=C(Nc1ccncc1)c1ccccc1CCc1ccccc1,14%
